Source: PubChem BioAssay
Yeast UUG start = alters start codon recognition fidelity in yeast | S. cerevisiae UUG-firefly luciferase reporter, luminescence/redox ratio | activity score, % at 18.7 µM | actives 0.13% (n = 350,000) | AID 602363;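 active = replicate mean at a twofold rise or more, about +100% in these data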;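 also: firefly luciferase made from a UUG start codon reports start codon fidelity; reporter light over untreated wells divided by growth signal over untreated wells; some hits fall short of that in this replicate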
Rce1 inhib = inhibitors of yeast Ras-converting enzyme; actives 0.27% (n = 290,000); calls only; Q03530; yeast membranes, quenched prenylated peptide cleavage fluorescence;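 active = fall in fluorescence gain of 50% or more versus controls, with final raw signal at or below 3038400; inconclusive = same 50% fall but final raw signal above 3038400; inactive = fall in fluorescence gain under 50%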;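 also: plate controls were neutral control wells for no effect and wells lacking membranes for full effect; tested at 10 µM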
Target sequence (Q03530 whole entry, looked up): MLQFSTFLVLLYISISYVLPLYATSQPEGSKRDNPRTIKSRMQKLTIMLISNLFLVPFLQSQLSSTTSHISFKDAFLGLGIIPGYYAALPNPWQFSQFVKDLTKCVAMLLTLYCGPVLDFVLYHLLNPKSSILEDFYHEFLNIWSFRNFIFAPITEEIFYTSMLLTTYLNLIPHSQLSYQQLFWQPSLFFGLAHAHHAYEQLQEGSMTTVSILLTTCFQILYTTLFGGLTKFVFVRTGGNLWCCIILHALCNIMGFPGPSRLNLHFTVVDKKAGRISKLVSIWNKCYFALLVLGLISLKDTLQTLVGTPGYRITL
MT1-MMP act inh = blocks activation of human MT1-MMP. GFP/RFP ratio change, % at 20 µM. AID 651647. HT1080 RFP-PRO-GFP cells, GFP/RFP ratio fluorescence, overnight; percent of plate control window, DMSO zero. actives 0.061% (n = 360,000);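 active = GFP/RFP ratio change of at least 30% with cell ATP level not reduced by more than half and red fluorescence within 50% of control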; also: strong numbers were not always called active
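Material – HT1080 RFP-PRO-GFP cells · Control set – DMSO wells and RFP-L50D-GFP cells · Incubation – overnight cell settling, then overnight compound exposure, 37 °C, 5% CO2 · Compound dosing – single-point 20 µM compound, 1% DMSO · Read-out – GFP/RFP fluorescence ratio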
CSC inhib = cancer stem cell inhibition; actives 1.1% (n = 300,000); inhibition, % at 7.5 µM; AID 2717; cancer stem cell-like cells viability, luminescence;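 active = mean at 75% or more and at least half the replicates too; inconclusive = mean and replicates disagree; tested in HMLE shEcad cells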;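 also: 0% = median of negative and 100% = median of positive control wells; the first replicate is given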
eIF4H inh = inhibitors of RNA binding by human eIF4H; eIF4H fluorescence polarization binding assay; inhibition, % at 35 µM; actives 0.94% (n = 290,000); AID 2012;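 active = 50% or more with normal probe brightness, or confirmed in later tests; inconclusive = above 50% with abnormal brightness, or retests that disagree; inactive = below 50% or failed in later tests; about a fifth of its hits are not listed in these tables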;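 also: calls also rest on retests at 20 µM and on dose response follow-up; 0% = protein and probe with vehicle and 100% = probe without protein; strong numbers were not always called active; many hits fall short of the cut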
PABP polyA inh = blocks human PABP binding to poly(A) RNA | P11940 | fluorescence polarization | inhibition, % at 35 µM | actives 1% (n = 290,000) | AID 2014;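 active = 50% or more with normal probe brightness, or confirmed in later tests; inconclusive = above 50% with abnormal brightness, or retests that disagree; inactive = below 50% or failed in later tests; about a fifth of its hits are not listed in these tables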;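 also: calls also rest on retests at 20 µM and on dose response follow-up; controls were probe without protein and protein plus probe with vehicle; some compounds called inactive have numbers as strong as hits; many hits fall short of the cut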
Env fusion inh = inhibitors of HIV Env-mediated cell fusion | inhibition, % at 12.3 µM | AID 651610 | HeLa-JRFL Env/CEM21 cell fusion, luciferase | actives 1.1% (n = 360,000);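 active = mean replicate inhibition score of at least 50 and every replicate individually at or above 50; inconclusive = only one of the two criteria met; inactive = mean below 50 and not all replicates reaching 50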;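 also: 0% = plate neutral controls and 100% = maraviroc near 300 nM; one replicate is shown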
eIF4H inh retest = further read-out of eIF4H inh, marked with its call; inhibition, %; compound at 20 µM; confirmation average;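 mean of two retest wells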
PABP polyA inh retest = recorded beside PABP polyA inh, whose call it bears; inhibition, %; compound at 20 µM; confirmation repeats;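 mean of two retest wells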
MT1-MMP act inh RFP = further read-out of MT1-MMP act inh, marked with its call; RFP signal change, %; measured here: RFP expression control read;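 0 = vehicle wells; hits needed this value within 50% of zero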
Numbers without * were called inactive; i = inactive; u = inconclusive; x = no result given. Hits appear at their usual frequency (roughly 2.9% active in at least one column).

SMILES | Yeast UUG start | Rce1 inhib | MT1-MMP act inh | MT1-MMP act inh RFP | CSC inhib | eIF4H inh | PABP polyA inh | Env fusion inh | others
COc1ccc(N2CCN(C3CCCN(C(=O)CCN4CCCCO4)C3)CC2)cc1 (stereo unspecified) | -7 | i | 1 | 0 | x | 1 | 8 | 7
COc1ccc(CN2C[C@@H](CO)O[C@@H](n3cnc4c(NC5CC5)ncnc43)C2)cc1 | -6 | x | 6 | -2 | x | x | x | 19
O=C(Cn1cc(C(F)(F)F)ccc1=O)Nc1ccccc1 | -6 | i | -1 | 4 | -16 | -12 | 2 | -8
COc1ccc(C2/C=C\CN(CC3CC3)CC(=O)N2Cc2ccc(F)cc2)cc1 (stereo unspecified) | -23 | i | 8 | 0 | -9 | 0 | -5 | -18
CCOC(=O)C1C(=O)C(C(=O)OCC)C(c2cccnc2)NC1c1cccnc1 (stereo unspecified) | x | i | 12 | 4 | -1 | 2 | 3 | x
COc1ccc(C(=O)NCc2ccccc2OC)cc1 | -9 | i | -4 | -1 | -1 | 3 | 10 | 18
O=C(NCc1cccc(C(F)(F)F)c1)c1cc(Cl)cc(Cl)c1 | -9 | i | -3 | -2 | 13 | 2 | -15 | -72
N#CCCN(Cc1cccnc1)C(=S)NC(=O)c1ccc(S(=O)(=O)N2CCCC2)cc1 | x | i | 0 | -2 | -3 | 2 | 1 | 16
O=C(Nc1c(-c2ccc(Cl)cc2)[nH][nH]c1=O)c1ccccn1 | -22 | x | 5 | 5 | x | x | x | 18
CCN(CC(=O)NC(=O)NCc1ccccc1)Cc1ccccc1 | -15 | i | -2 | 1 | -15 | -6 | 1 | 17
CCN(CC(=O)Nc1ccc(C(C)=O)cc1)CC(=O)Nc1ccccc1C(F)(F)F | x | i | 0 | -1 | -8 | -8 | -1 | 26
CCCCn1nnc(NC(=S)NC(=O)c2ccc(OCC)c([N+](=O)[O-])c2)n1 | -28 | i | -4 | 2 | -3 | -3 | 4 | 4
CNc1cnc(-c2ccccc2OC)cn1 | -15 | x | 2 | 3 | x | x | x | -11
O=Cc1c(Cl)cccc1Cl | -14 | x | -2 | 7 | -4 | x | x | x
CCN(CC)S(=O)(=O)c1cc([N+](=O)[O-])ccc1N=Nc1c(O)n(C)c2ccccc12 | x | i | -17 | 2 | 2 | 5 | 14 | -8
CCOC(=O)C1C2C=CC3(CN(Cc4cccs4)C(=O)C13)O2 (stereo unspecified) | -7 | x | -3 | 2 | -6 | 1 | 4 | x
CC1(C)Oc2ccc3ccc(=O)oc3c2C(/C=N/O)C1=O (stereo unspecified) | -26 | i | 1 | 1 | 1 | -2 | -2 | -5
O=C1OC(Oc2ccccc2)(c2ccccc2)c2ccccc21 (stereo unspecified) | -18 | i | 7 | 0 | 14 | -11 | -2 | -7
COc1ccc([C@@H]2Sc3ccccc3N(CCN(C)C)C(=O)[C@@H]2OC(C)=O)cc1 | -12 | i | -5 | -2 | 2 | 0 | 3 | 16
c1ccc(-c2sc3ccccc3c2-c2ccc(OCCN3CCCC3)cc2)cc1 | -11 | x | -6 | -6 | 107* | x | x | 6
COc1ccc(/C=C2\CCn3c2nc2cc(C(=O)O)ccc2c3=O)cc1 | -15 | i | 2 | 0 | -5 | 1 | 5 | -11
CSCC[C@H](NC(=O)Nc1cccc(C(F)(F)F)c1)C(=O)O | 0 | i | 1 | 5 | -6 | -6 | 0 | x
Nc1ccc(C(=O)N/N=C/c2cn(Cc3cccc(F)c3)c3ccccc23)cc1 | -15 | i | 5 | -6 | 17 | -5 | -17 | -23
CC(=O)n1cc(/C=C2/N=C(c3ccccc3)OC2=O)c2ccccc21 | 3 | i | 0 | 8 | -3 | -8 | -1 | -293
CC(C)CC(N)c1csc(NC(=O)Nc2ccccc2C(C)C)n1 (stereo unspecified) | -5 | x | 1 | 2 | x | x | x | -6
Going on with the list:
SMILES | Yeast UUG start | Rce1 inhib | MT1-MMP act inh | MT1-MMP act inh RFP | CSC inhib | eIF4H inh | PABP polyA inh | Env fusion inh | others
CC(C)=NNc1nc(-c2ccc(N3C(=O)CCC3=O)cc2)cs1 | x | i | 2 | -2 | -6 | 10 | 13 | 18
COc1ccc(C(=O)Nc2cc(C(C)=O)c(/C=C/N(C)C)oc2=O)cc1 | -21 | i | -117 | -1 | 6 | u | u | -55
COc1ccc2[nH]c3c(c2c1)CCN1C(=O)N([C@@H](C)C(=O)NC2CC2)C(=O)[C@]31C | -13 | i | 1 | 0 | -12 | -6 | 0 | x
O=C(OCc1cc(Cl)ccc1OC(F)F)c1cccnc1 | x | i | -5 | -1 | 0 | 55* | 16* | 0 | eIF4H inh retest=84*;PABP polyA inh retest=81*
CN(Cc1cn(C)nc1-c1cccc(Cl)c1)CC1CCCCO1 (stereo unspecified) | x | i | -1 | 2 | -4 | -5 | -11 | 21
CNC(=S)Nc1ccc2nc(C)oc2c1 | -14 | i | 0 | -5 | -8 | -12 | 42 | 6
Cc1cccc2cc(C#N)c(NCCNS(=O)(=O)c3ccccc3)nc12 | x | i | -2 | -2 | -6 | 8 | 7 | -2
COC(=O)NCc1ccc(S(=O)(=O)N2CCOCC2)cc1 | -14 | i | 5 | 6 | 13 | 0 | -1 | x
O=[N+]([O-])c1cc(S(=O)(=O)Nc2cccc(C(F)(F)F)c2)ccc1-n1nnc2ccccc21 | -7 | i | 6 | -4 | 38 | 2 | -2 | x
CCOCCOC(=O)CCSc1n[nH]c(=O)[nH]c1=O | -10 | i | 1 | -6 | 9 | -7 | -2 | x
COC(=O)Nc1ccc(S(=O)(=O)Nc2ccc(O)cc2)cc1 | -27 | i | 27 | -4 | 7 | -5 | -4 | x
COC(=O)COc1ccc(S(=O)(=O)NC2CCCCCC2)cc1 | 12 | i | 1 | 0 | 0 | -10 | -15 | x
COCC(C)N=C1NN=C(c2cc(C)n(Cc3ccccc3Cl)c2C)CS1 (stereo unspecified) | x | i | 4 | -11 | 23 | -12 | -1 | -10
CCCCN(C)CCC(=O)Nc1ccc(Cl)cc1 | x | i | 3 | 4 | -19 | -4 | -2 | -2
O=C(c1cc(Br)ccc1OC(F)F)N1CCN2CCCC2C1 (stereo unspecified) | 1 | x | -4 | 3 | x | x | x | 4
CN(C)C1=NC(=O)/C(=C/c2ccc(-c3ccc(S(N)(=O)=O)cc3)o2)S1 | x | i | x | x | -3 | 39 | -4 | x
COc1ccc(OC)c2sc(NC(=O)C3CC3)nc12 | 9 | i | -5 | 0 | -1 | -2 | -3 | i
COc1ccc(CCNC(=O)C2CC3Cn4c(nc5ccccc54)C3N2c2ccccc2)cc1 (stereo unspecified) | -17 | i | -5 | -2 | -2 | x | x | 4
COc1ccccc1NC(=S)N(CCN1CCCCCC1)Cc1cccs1 | x | i | -3 | 4 | 7 | 8 | -14 | -9
Cc1nccn1CCCNC(=O)CC1C(=O)NCCN1Cc1ccccc1C(F)(F)F (stereo unspecified) | -12 | i | -2 | 0 | -8 | 11 | 8 | -14
CNC(=O)CN1C(=O)C2C3C=CC(C3)C2C1=O (stereo unspecified) | -18 | i | -3 | 4 | 4 | -12 | 2 | -46
CC(=O)c1ccc(NC(=O)C2=CC(c3cccs3)=NS(=O)(=O)N2C)cc1 | 1 | i | 2 | -5 | -11 | x | x | 6
CCOP(=O)(c1ccccc1)C1(C#N)CCCC1 (stereo unspecified) | -15 | i | 0 | 0 | 14 | -3 | 8 | x
COc1cc(/C=N/Nc2ccc(C(F)(F)F)cn2)cc(OC)c1O | -2 | i | -6 | -5 | x | -2 | -1 | 2
COc1ccc(C(=O)Nc2ccc3c(c2)C(=O)N(C)C3=O)cc1OC | x | i | -1 | 1 | -1 | -4 | -9 | x
(further entries)
SMILES | Yeast UUG start | Rce1 inhib | MT1-MMP act inh | MT1-MMP act inh RFP | CSC inhib | eIF4H inh | PABP polyA inh | Env fusion inh | others
CSc1snc(SCC(N)=O)c1C#N | -12 | i | 2 | 3 | -9 | -1 | -6 | x
CC1(C)Cc2nc(NCCCO)c(C#N)cc2CO1 | -3 | u | -3 | 5 | -14 | -1 | -2 | x
CCCC(=O)Nc1cc(OC)c(OC)cc1C(=O)O | -20 | i | 7 | 9 | 3 | -12 | 20 | -13
CCOc1ccc(CN(C)C(=O)c2ccc(=O)[nH]c2)cc1 | -12 | x | -1 | 0 | -4 | -15 | 5 | -3
O=c1c2ccccc2n(CC(O)CN2CCCCC2)c2ccccc12 (stereo unspecified) | 9 | i | 2 | -1 | -1 | -7 | -13 | -32
COc1ccc(CN(C)C(=O)C2CSC3(C)CCC(=O)N23)cc1 (stereo unspecified) | x | i | 3 | 6 | -7 | x | x | 0
CC(=O)Nc1cccc(-c2cc3c(c4c2ccn4C)C2CCC3O2)c1 (stereo unspecified) | -3 | x | 2 | 2 | x | x | x | 2
CNC(=O)c1sc(N2N=C3/C(=C/c4ccccc4)CCCC3C2c2ccccc2)nc1C (stereo unspecified) | -11 | i | -29 | -17 | 51 | 37 | 12 | x
COc1ccc(S(=O)(=O)N2CCCCCC2)cc1C(=O)N1CCN(c2ccccc2C)CC1 | 7 | x | 9 | -13 | -10 | x | x | x
Cc1ccc(N2CCN(S(=O)(=O)c3ccc(F)c(C)c3)CC2)c(C)c1 | -9 | i | 0 | -3 | -12 | 3 | -2 | x
COC(=O)c1ccc(S(=O)(=O)N2CCCN(Cc3ccccc3)CC2)n1C | x | i | -1 | -7 | -3 | -1 | -5 | 7
Cc1ccc(OCCCCCN2CCOCC2)cc1 | 0 | i | 4 | -1 | 8 | -5 | -5 | -12
CC(=O)c1nn(-c2ccc(Cl)cc2)cc1C(=O)c1ccccc1 | -6 | i | 5 | -1 | 2 | x | x | 5
Cc1cc(C=O)c(C)n1-c1sc2c(c1C(=O)O)CCCC2 | x | i | 4 | -5 | -4 | 9 | 4 | -12
CCCCCC(=O)NC(=S)Nc1cccc(-c2nc3ncccc3o2)c1 | -18 | i | 0 | -3 | -8 | -3 | -2 | 9
COc1ccc(-c2noc(C3CCCN(C(=O)c4c(F)cccc4F)C3)n2)cc1OC (stereo unspecified) | 11 | i | 2 | -6 | -6 | 4 | 6 | -14
O=C(CN(C(=O)c1csnn1)c1cccc(C(F)(F)F)c1)NCCc1ccccc1 | -13 | i | -1 | -5 | x | -13 | -8 | -2
CC(NC(=O)CN1C(=O)NC2(CCCC2)C1=O)c1ccc2ccccc2c1 (stereo unspecified) | -11 | x | 2 | 0 | x | x | x | 4
O=C(COC(=O)c1ccc2c(c1)OCO2)NC1CCCCC1 | -9 | x | 0 | 3 | -8 | x | x | 5
O=C(Nc1cnc2ccccn2c1=O)c1ccc(Cl)cc1Cl | -44 | i | 5 | 1 | -8 | 1 | -2 | 17
CC1CCN(S(=O)(=O)N2CCC(C(=O)NCc3ccc4c(c3)OCO4)CC2)CC1 | -12 | i | -4 | -5 | -10 | -7 | -2 | -4
Cc1onc(-c2ccccc2)c1C(=O)NNC(=S)NC(=O)/C=C/c1cccs1 | -18 | i | 6 | -8 | 26 | 6 | 5 | x

Grouped by structure: those above with an aryl thioether with sulfur outside any ring (two)
SMILES | Yeast UUG start | Rce1 inhib | MT1-MMP act inh | MT1-MMP act inh RFP | CSC inhib | eIF4H inh | PABP polyA inh | Env fusion inh | others
CCOCCOC(=O)CCSc1n[nH]c(=O)[nH]c1=O | -10 | i | 1 | -6 | 9 | -7 | -2 | x
CSc1snc(SCC(N)=O)c1C#N | -12 | i | 2 | 3 | -9 | -1 | -6 | x
